miR-21 FLuc: qHTS Assay for Modulators of miRNAs and/orActivators of miR-21. AID 2288, 2010. HeLa miR-21 FLuc reporter, luciferase, 48 h. Potency, µM (top dose mostly 38.3 µM), for inactives: at the top dose reporter change, positive = more light. 340,000 tested, under 10 active; active = well fitted rising curve with a large enough effect; inconclusive = small, poorly fitted or top-dose-only effect; inactive = no such curve, though single readings can be large or run the other way;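 further: % of control where 0% means no effect; miR-21 action dims this reporter so a rising signal means less miR-21 action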
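Using DMEM plus 10% FBS, HeLa miR-21-FLuc cells are incubated with test compounds (final up to about 40uM) for 48 hours; firefly luciferase signal is then imaged following reagent-mediated lysis.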
Rango dissoc inh: qHTS Assay for Inhibitors of RanGTP induced Rango (Ran-regulated importin-beta cargo) - Importin beta complex dissociation. 340,000 tested, 0.071% active. Potency, µM (top dose mostly 46.1 µM), for the others: top-dose activity change, negative = inhibition. Biochemical FRET Rango-importin beta, RanGTP-induced dissociation. Snurportin-1 (Homo sapiens) + GTP-binding nuclear protein Ran (Homo sapiens) + Importin …; active means falling FRET ratio curve, often poorly fitted, with flat reads before Ran was added; inconclusive means other falling curves, or compound fluorescence or quenching; inactive means flat or rising ratio curve;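 further: potency means the concentration at half of the fitted maximal effect; % of control where 0% means no effect; nearly all actives have a fitted effect of over 45% in size; -100% = wells without RanGTP and RCC1; the record marks most hits as doubtful in a second field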
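Two FRET readings bracket the reaction: one 5 min after compound meets Rango–importin beta, another 45 min after RanGTP-RCC1 (0.6 uM Ran, 0.2 uM RCC1, 2 mM GTP) is added. Only the second defines inhibition.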
GLA inh pH 4.5: qHTS Assay for Inhibitors of Human alpha-Galactosidase at pH 4.5. Alpha-galactosidase A (Homo sapiens), P06280. purified enzyme, 4-MU-alpha-Gal fluorescence, pH 4.5. activity change, negative = inhibition, % at 105 µM. 230,000 tested, under 10 active. AID 1467, 2008; inconclusive = small, poorly fitted or top-dose-only inhibition, or a rising curve; inactive = flat fitted curve, though single readings scatter; no compound was filed as active;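 further: 0% = full activity with enzyme and -100% = basal without enzyme; dose as in the result columns while the protocol names 77 µM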
Rango-impB inh: qHTS Assay for Inhibitors of Rango (Ran-regulated importin-beta cargo) - Importin beta complex formation. Importin subunit beta-1 (Homo sapiens), Q14974. Potency, µM (highest dose often 92.2 µM), for inactives: at the highest dose inhibition of complex formation. Rango CFP/YFP FRET sensor + importin beta, 45 min. 340,000 tested, 0.031% active. AID 540263, 2011; active = rising FRET ratio curve, often small or poorly fitted; inconclusive = mostly compound fluorescence or quenching in the first reads; inactive = flat curves in all reads;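 further: potency means the concentration at half of the fitted maximal effect; 0% = DMSO wells and 100% = buffer wells lacking importin beta; nearly all actives have a fitted effect of over 15% in size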
Target sequence (Q14974 whole entry, looked up): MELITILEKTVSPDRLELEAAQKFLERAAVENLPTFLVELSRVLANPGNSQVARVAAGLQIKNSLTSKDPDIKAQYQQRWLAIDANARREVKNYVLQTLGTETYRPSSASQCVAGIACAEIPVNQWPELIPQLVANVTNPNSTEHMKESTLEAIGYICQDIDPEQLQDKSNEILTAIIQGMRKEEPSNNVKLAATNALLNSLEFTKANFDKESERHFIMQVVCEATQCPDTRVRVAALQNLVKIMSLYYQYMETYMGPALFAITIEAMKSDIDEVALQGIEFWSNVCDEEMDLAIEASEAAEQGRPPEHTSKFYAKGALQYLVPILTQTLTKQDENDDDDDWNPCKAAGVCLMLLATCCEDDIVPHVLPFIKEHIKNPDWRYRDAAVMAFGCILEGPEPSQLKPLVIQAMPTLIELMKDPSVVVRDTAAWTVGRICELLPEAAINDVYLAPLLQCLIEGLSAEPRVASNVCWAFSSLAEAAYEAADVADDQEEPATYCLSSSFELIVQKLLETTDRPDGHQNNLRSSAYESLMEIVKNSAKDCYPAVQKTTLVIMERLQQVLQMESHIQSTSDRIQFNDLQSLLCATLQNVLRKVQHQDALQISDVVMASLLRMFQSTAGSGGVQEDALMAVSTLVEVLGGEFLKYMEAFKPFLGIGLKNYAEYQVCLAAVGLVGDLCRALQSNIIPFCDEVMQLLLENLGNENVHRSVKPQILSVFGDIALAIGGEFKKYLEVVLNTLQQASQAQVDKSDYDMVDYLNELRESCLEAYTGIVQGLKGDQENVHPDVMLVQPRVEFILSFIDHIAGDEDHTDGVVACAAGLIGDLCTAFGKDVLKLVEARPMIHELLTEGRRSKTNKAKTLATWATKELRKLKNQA
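FRET biosensor (snurportin 1 IBB flanked by EYFP and cerulean), 50 nM, with compound 5 min, then 0.125 microM importin beta in PBS, 1 mM DTT, 0.02% Tween-20, 0.1% BSA. CFP/YFP ratio read after 45 min at room temperature; pre-read flags interference.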
The depositor's hits bear a star; ? = inconclusive; nt = no result given; & = joins results of further samples.

nr | SMILES | GLA inh pH 4.5 | Rango dissoc inh | miR-21 FLuc | Rango-impB inh
1 | Cc1nn(Cc2ccccc2)c(C)c1C(=O)NCCN1C(=O)S/C(=C\c2ccccc2)C1=O | -1 | -12% | -11% | 4.3%
2 | O=C(N/N=C/c1ccc(O)c(Br)c1)c1cc2c(ccc3ccccc32)o1 | nt | -2% | -4% | ?
3 | Cc1ccc(C(=O)OC(C)C(=O)Nc2ccc(S(N)(=O)=O)cc2)cc1S(=O)(=O)N1CCOCC1 (stereo unspecified) | nt | -5% | nt | 0.1%
4 | COCCn1nnnc1C(c1ccccc1)N1CCN(Cc2ccc3c(c2)OCO3)CC1 (stereo unspecified) | -2 | -3% | -5% | -0.5%
5 | CCCCCN(C(=O)CCC(=O)OCCOc1ccccc1)c1c(N)n(CCCC)c(=O)[nH]c1=O | nt | -10% | nt | -2.5%
6 | CCc1ccc2[nH]c(O)c(N=NC3=NC(=O)CS3)c2c1 | -3 | -11% | 3% | 6.6%
7 | O=C(Oc1ccc2ccc(=O)oc2c1)c1ccccc1 | nt | -26% | 6% | -12%
8 | Cn1c(N)c(C(=O)COC(=O)c2cccc(S(=O)(=O)NCc3ccccc3)c2)c(=O)n(C)c1=O | nt | -17% | nt | 3.4%
9 | Cc1cc(C)c(OCC(=O)OCC(=O)NC2CCCCCCC2)c(C)c1 | nt | 0% | 1% | 3.7%
10 | Cc1cc(Cl)c2oc(C(=O)NCCN3CCOC3=O)c(C)c2c1 | nt | -15% | -23% | 0.8%
11 | CC1CC(NC2=NCCS2)CC(C)(C)C1 (stereo unspecified) | 7 | -5% | -4% | 3.5%
12 | O=C(CSc1ncn[nH]1)NC1CC2CCC1C2 (stereo unspecified) | -7 | 2% | -2% | -0.9%
13 | CC1(C)NC(C)(C)/C(=C\c2cccs2)C(=O)C1=O | -5 | 8% | -2% | 1.9%
14 | CC[N+](CC)(CC)C/C=C/CN1CCCCC1 | 3 | 3% | -4% | 1.0%
15 | C#CCOCCOCCOCCNc1nc(N2CCN(C(=O)C([C@@H](C)CC)n3cc(C(N)Cc4ccc(O)cc4)nn3)CC2)nc(N2CCN(C(=O)[C@H](CCC(=O)O)n3cc(C(N)CC(C)C)nn3)CC2)n1 (stereo partly specified) | 2 | -6% | -2% | -0.8%
16 | Cc1cc(CN2C(=O)c3ccccc3C2=O)cc(N2CCOCC2)c1 | -5 | 5% | -3% | -1.2%
17 | C=CCn1c(COc2ccccc2F)nnc1SCC(=O)NC(=O)NCc1ccco1 | 6 | 0% | -2% | 0.8%
18 | O=C1C=C(C2OC(CO)C(O)C2O)C(=O)N1 (stereo unspecified) | nt | -3% | nt | 0.8%
19 | CCOC(=O)c1c(NC(=O)CSc2nnc(-c3ccc(OC)cc3)o2)sc2c1CCC2 | nt | -5% | nt | -1.9%
20 | CC(C)NC(=O)CSc1nnc(-c2ccc(F)cc2)c2ccccc12 | -19 | -7% | -2% | 8.0%
21 | COc1ccc(/C=N/NC(=O)Cc2n[nH]c(=O)[nH]c2=O)cc1 | 4 | -12% | 2% | ?
22 | O=C(COC(=O)C1(c2cccc(F)c2)CCCC1)NCc1cccs1 | 8 | 3% | 7% | 1.6%
23 | CCOC(=O)CSC1=N/C(=C\c2ccc(OC)c(OC)c2)C(=O)N1C | -9 | ? | 0% | ?
24 | CC(=O)C(C)n1cnc2scc(-c3ccc(C)cc3)c2c1=O (stereo unspecified) | nt | -6% | -10% | -1.4%
25 | Cc1ccc(C(=O)OCC(=O)NCCc2ccccc2)cc1C | nt | -5% | nt | 0.2%
26 | CCOC(=O)c1cc(NC(=O)c2ccc(C)cc2)c(=O)oc1C(F)(F)F | 10 | 2% | -17% | 0.3%
27 | Cc1c(NC(=O)c2ccc(F)c(S(=O)(=O)N3CCOCC3)c2)c(=O)n(-c2ccccc2)n1C | 0 | -13% | -6% | 0.1%
28 | CCc1cccc2c(=O)c(C(=O)NCCCOC)c[nH]c12 | 6 | -12% | -5% | -5.4%
29 | CCCN1CCN(C(=O)c2ccc3nc(CC)c(CC)nc3c2)CC1 | nt | 3% | -1% | -0.9%
30 | CC1(C)CC(=O)C(CO)=C(c2cccc3ccccc23)C1=O | nt | 5% | nt | -1.2%
31 | C=C1CCN(Cc2ccccc2)S(=O)(=O)c2ccccc21 | 0 | 5% | -2% | 0.3%
32 | CCOC(=O)/C(=C/C=C/c1ccccc1)NC(=O)c1ccccc1 | -1 | 0% | -10% | -1.9%

Sorted by molar mass (lowest first): some entries from above
nr | SMILES | GLA inh pH 4.5 | Rango dissoc inh | miR-21 FLuc | Rango-impB inh
18 | O=C1C=C(C2OC(CO)C(O)C2O)C(=O)N1 (stereo unspecified) | nt | -3% | nt | 0.8%
14 | CC[N+](CC)(CC)C/C=C/CN1CCCCC1 | 3 | 3% | -4% | 1.0%
28 | CCc1cccc2c(=O)c(C(=O)NCCCOC)c[nH]c12 | 6 | -12% | -5% | -5.4%
30 | CC1(C)CC(=O)C(CO)=C(c2cccc3ccccc23)C1=O | nt | 5% | nt | -1.2%
31 | C=C1CCN(Cc2ccccc2)S(=O)(=O)c2ccccc21 | 0 | 5% | -2% | 0.3%
21 | COc1ccc(/C=N/NC(=O)Cc2n[nH]c(=O)[nH]c2=O)cc1 | 4 | -12% | 2% | ?
25 | Cc1ccc(C(=O)OCC(=O)NCCc2ccccc2)cc1C | nt | -5% | nt | 0.2%
32 | CCOC(=O)/C(=C/C=C/c1ccccc1)NC(=O)c1ccccc1 | -1 | 0% | -10% | -1.9%
16 | Cc1cc(CN2C(=O)c3ccccc3C2=O)cc(N2CCOCC2)c1 | -5 | 5% | -3% | -1.2%
29 | CCCN1CCN(C(=O)c2ccc3nc(CC)c(CC)nc3c2)CC1 | nt | 3% | -1% | -0.9%
20 | CC(C)NC(=O)CSc1nnc(-c2ccc(F)cc2)c2ccccc12 | -19 | -7% | -2% | 8.0%
22 | O=C(COC(=O)C1(c2cccc(F)c2)CCCC1)NCc1cccs1 | 8 | 3% | 7% | 1.6%
23 | CCOC(=O)CSC1=N/C(=C\c2ccc(OC)c(OC)c2)C(=O)N1C | -9 | ? | 0% | ?
17 | C=CCn1c(COc2ccccc2F)nnc1SCC(=O)NC(=O)NCc1ccco1 | 6 | 0% | -2% | 0.8%
19 | CCOC(=O)c1c(NC(=O)CSc2nnc(-c3ccc(OC)cc3)o2)sc2c1CCC2 | nt | -5% | nt | -1.9%
27 | Cc1c(NC(=O)c2ccc(F)c(S(=O)(=O)N3CCOCC3)c2)c(=O)n(-c2ccccc2)n1C | 0 | -13% | -6% | 0.1%

Later entries:
nr | SMILES | GLA inh pH 4.5 | Rango dissoc inh | miR-21 FLuc | Rango-impB inh
33 | Cc1ccc(S(=O)(=O)NCCC(=O)NNC(=O)c2ccccc2O)cc1C | nt | -20% | nt | 0.5%
34 | O=C(NCc1ccccc1Cl)C1CCCN(S(=O)(=O)c2cccc3nsnc23)C1 (stereo unspecified) | 2 | 17% | 3%&1% | 1.6%
35 | CCCCCCc1cc2cc(-c3nnc(-c4ccccc4O)o3)c(=O)oc2cc1O | -2 | ? | -1% | ?
36 | CCc1ccc(OCCNC(=O)c2cccs2)cc1 | 0 | 4% | -14% | 1.0%
37 | CC(OC(=O)c1ncc(Cl)c(Cl)c1Cl)C(=O)NC1(C#N)CCCCC1 (stereo unspecified) | nt | -9% | nt | -2.8%
38 | CCOc1ncccc1C(=O)OCc1csc(CC(=O)Nc2ccccc2C)n1 | nt | -2% | nt | -3.3%
39 | CC(C)(C)NC(=O)CSc1nc2scc(-c3ccccc3)c2c(=O)[nH]1 | -6 | 1% | -2% | ?
40 | O=C1O/C(=C/c2ccccc2)N=C1c1ccccc1 | -8 | -9% | -5% | 2.7%
41 | C/C=C/C(=O)OCC(=O)Nc1cc(-c2cc(C)c(C)cc2C)nn1-c1ccccc1 | -1 | -4% | -3% | 2.2%
42 | C/C(=N\Nc1ncc(Cl)cc1Cl)c1ccc(S(=O)(=O)NCc2ccco2)cc1 | -7 | 5% | -24% | -2.4%
43 | Oc1cccnc1SCc1ccccc1 | nt | 5% | nt | -5.7%
44 | CC(C)(C)c1ccc(C(CC(=O)O)NC(=O)Cc2ccc(F)cc2)cc1 (stereo unspecified) | 3 | nt | -4% | nt
45 | COC(=O)c1ccc(/C=C/c2c(-c3ccc(OC)cc3)oc3ccccc23)cc1 | nt | -13% | -3% | -0.1%
46 | CCn1cnc2sc(C(=O)Oc3cccc(C)c3)c(C)c2c1=O | 0 | 3% | -10% | -0.1%
47 | CCc1nc(SCC(=O)c2ccc(C)c(C)c2)n[nH]1 | 3 | -11% | -19% | -1.5%
48 | COC(=O)[C@H](Cc1ccccc1)NC(=O)NCc1ccc(S(N)(=O)=O)cc1 | 4 | 7% | -4% | -3.8%
49 | COCCn1c(SCC(=O)Nc2ccc(C(C)=O)cc2)nc2c([nH]c3ccccc32)c1=O | nt | -6% | 6% | -0.3%
50 | NNC(=O)CNC(c1ccccc1)c1cc(Br)ccc1NC(=O)c1cccc(Cl)c1 (stereo unspecified) | -11 | -11% | -5% | ?
51 | N/C(=N\OC(=O)COc1ccc([N+](=O)[O-])cc1)c1ccncc1 | -2 | 6% | 0% | 0.8%
52 | Cc1oc(-c2cc3c(cc2Cl)OCO3)nc1CN1CCCC(C(=O)N2CCOCC2)C1 (stereo unspecified) | 3 | 0% | -2% | ?
53 | Cc1c(OCC(=O)NC(Cc2ccc(Cl)cc2)C(=O)O)ccc2c3c(c(=O)oc12)CCCC3 (stereo unspecified) | nt | 12% | -4% | -0.4%
54 | CC(=O)N(CC(=O)O)c1ccccc1C(=O)O | 1 | 2% | 0% | -0.6%
55 | O=[N+]([O-])c1ccc2nc(-c3ccc(Cl)cc3)n(OCc3ccccc3)c2c1 | -3 | -6% | -50% | -0.7%
56 | O=C(CC1C(=O)NCCN1Cc1cccc(Oc2ccccc2)c1)NCCc1cnccn1 (stereo unspecified) | -7 | -3% | 3% | ?
57 | CCOC(=O)c1c(NC(=O)CSc2nnc(-c3ccncc3)n2Cc2ccco2)sc(C)c1C | 1 | -25% | -4% | -3.0%
58 | COc1ccc(C(=O)Nc2ccc(S(=O)(=O)N3CCOCC3)cc2)cc1OC | -13 | 2% | -1% | -0.2%
59 | N#Cc1cc2sc3nnc(-c4ccncc4)n3c2cc1C#N | -5 | 19% | 13% | 4.4%
60 | Cc1nn(Cc2ccccc2Cl)c(C)c1NC(=O)CSc1n[nH]c(C)c1[N+](=O)[O-] | -1 | nt | -4% | nt
61 | Nc1[nH]nc2c1NN(c1ccc(Cl)cc1Cl)N2 | -2 | -3% | -15% | -0.1%
62 | CC1(C)Oc2ccc3ccc(=O)oc3c2/C(=C/N)C1=O | 5 | 6% | 3% | 0.6%
63 | NC(=O)C1CCN(C(=O)Cc2ccc([N+](=O)[O-])cc2)CC1 | 1 | 16% | -3% | 4.8%
64 | O=C(c1cn2ccccc2n1)N1CCCC(Nc2ccc(F)c(F)c2)C1 (stereo unspecified) | nt | 5% | -13% | -2.6%
65 | Cc1ccc(-c2nc(C(=O)NC3CCCCCC3)no2)cc1 | nt | 4% | nt | -1.6%
66 | O=C(CCc1nc(-c2ccccc2Cl)no1)NCc1ccco1 | -3 | 11% | -3% | 2.3%
67 | COC1CCCN(C(=O)c2cccc(OC3CCN(S(C)(=O)=O)CC3)c2)C1 (stereo unspecified) | nt | -6% | -2% | 4.9%
68 | Cc1cc(C(=O)N/N=C/c2cccc3ccccc23)c(C)o1 | nt | -12% | -42% | 1.9%
69 | N#Cc1c(-c2ccc(Cl)cc2)ccnc1N1CCOCC1 | 2 | 14% | -48% | 2.3%
70 | Cc1cc(C)c(NC(=S)N(CCN2CCCCC2)Cc2ccco2)c(C)c1 | 2 | -5% | -9% | -4.8%
71 | Cc1cc(C)c2nc(-c3ccccn3)cc(C(=O)N3CCCC3)c2c1 | nt | 1% | -4% | -0.1%
72 | O=C(NC1CCCC1)c1cccc(S(=O)(=O)N2CCCCC2)c1 | -12 | 1% | 1% | -2.1%

High-throughput results as filed in PubChem BioAssay.

These rows are one share of the data; the hit share may differ from the screen's.
